NPYLR7 ag: agonists of mosquito NPYLR7 receptor, primary screen, cell-based, Aedes aegypti, calcium fluorescence, mosquito biting behavior; Aedes aegypti neuropeptide Y-like receptor 7 (NPYLR7); HEK293T NPYLR7/Galpha15, GCaMP6s calcium fluorescence; activation, % at 10 µM; 270,000 compounds, 0.15% hits; in the data active = activation above about 40%;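 also: 0% = vehicle and 100% = reference agonist at the receptor; some compounds past the cut are filed as inactive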
NPYLR7 ag max-min: second read-out of NPYLR7 ag, no call of its own (marks repeat the call); activation, %; measured here: Max-Min RFU normalised activation; some inactives read as strong as hits;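 span of the calcium signal over five minutes; 0% = vehicle and 100% = native peptide agonist; compound fluorescence can raise it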
Active calls of the source: *; & = joins results of further samples. These rows are one share of the data; the hit share may differ from the screen's.

SMILES	NPYLR7 ag	NPYLR7 ag max-min
Cc1cc(OCC(=O)N2CCc3sccc3C2)ccc1[N+](=O)[O-]	10	10
CSCCCNC(=O)c1cc(N2CCN(c3cccc(C(F)(F)F)c3)CC2)nc2ccccc12	4	3
COc1cccc(COC(=O)c2nnn(-c3ccc(F)cc3)c2C)c1	-9	-13
CCOC(=O)[C@@H](NC(=O)c1ccc[nH]c1=O)C(C)(C)C	3	3
CC1CCN(C(=O)C(C)OC(=O)c2ccc(NC(=O)CC#N)cc2)CC1 (configuration not stated)	11	7
CN(C)S(=O)(=O)N1CCC(CO)(CCc2ccccc2)CC1	5&-8	0&-11
CC1CN(C(=O)c2ccc(Br)cc2F)CC(C)O1 (configuration not stated)	7	9
O=C(O)CCCCC1CCSS1 (configuration not stated)	-6	-13
CCCOc1ccc(N2C(=O)CC(NCCCc3ccccc3)C2=O)cc1 (configuration not stated)	-5	-10
CC(C)C(C(=O)NC(C)C1CC1)n1cnc2cc(F)c(F)cc21 (configuration not stated)	5	5
Cc1noc(C)c1C(=O)N1CCC2(CCCN(CC3CC3)C2=O)C1 (configuration not stated)	0	-1
O=c1c(SCc2cccc(Cl)c2)nccn1-c1ccc2c(c1)OCCO2	-2	-3

In the list so far, five contain sulfur.
SMILES	NPYLR7 ag	NPYLR7 ag max-min
Cc1cc(OCC(=O)N2CCc3sccc3C2)ccc1[N+](=O)[O-]	10	10
CSCCCNC(=O)c1cc(N2CCN(c3cccc(C(F)(F)F)c3)CC2)nc2ccccc12	4	3
CN(C)S(=O)(=O)N1CCC(CO)(CCc2ccccc2)CC1	5&-8	0&-11
O=C(O)CCCCC1CCSS1 (configuration not stated)	-6	-13
O=c1c(SCc2cccc(Cl)c2)nccn1-c1ccc2c(c1)OCCO2	-2	-3

(list continues)
SMILES	NPYLR7 ag	NPYLR7 ag max-min
CCC(C(=O)Nc1cc(-c2cn3nc(OC)ccc3n2)ccc1Cl)c1ccccc1 (configuration not stated)	-7	-11
COc1ccc(C)cc1-n1cnnc1C1CCCN(C)C1 (configuration not stated)	-2	2
O=S(=O)(NCC1CC1)c1ccc(Cl)cc1F	-3	-4
OCC#CCSc1nc2ccccc2s1	3	2
CCC(C(=O)N1CCN(C(C(=O)NCCc2ccc(OC)cc2)C2CCCC2)CC1)c1ccccc1 (configuration not stated)	0	15
CC(C)NS(=O)(=O)Cc1ccc(CNC(=O)c2ccc3c(c2)CCCC3)cc1	11	14
CCN(CC)CCCC(C)NC(=O)c1sc2c(Cl)c(Cl)ccc2c1Cl (configuration not stated)	0	2
Cc1ccc(-c2ccc(/C=N\Nc3nc4nonc4nc3Nc3ccc(Br)cc3)o2)cc1Cl	-2	10
Cc1nc(-n2nc(-c3ccco3)cc2NC(=O)c2c(F)cccc2F)[nH]c(=O)c1C	-1	-3
Cc1nc(-c2ccsc2)sc1C(=O)NCc1ccccc1	0	19
Cc1ccc(-c2cn(-c3ccccc3)c(SCC(N)=O)n2)cc1C	9	6
CC(C)c1nc2cc(C(=O)NCCc3cnn(-c4ccccc4)c3)ccc2o1	11	-1

Record cards, from the list above.
Cc1nc(-c2ccsc2)sc1C(=O)NCc1ccccc1 as listed: NPYLR7 ag = 0; NPYLR7 ag max-min = 19
Cc1cc(OCC(=O)N2CCc3sccc3C2)ccc1[N+](=O)[O-] as listed: NPYLR7 ag = 10; NPYLR7 ag max-min = 10
Cc1nc(-n2nc(-c3ccco3)cc2NC(=O)c2c(F)cccc2F)[nH]c(=O)c1C as listed: NPYLR7 ag = -1; NPYLR7 ag max-min = -3

Following part:
SMILES	NPYLR7 ag	NPYLR7 ag max-min
COCCNC(=O)C1(C)CCCN(Cc2cccn2C)C1 (configuration not stated)	-1	1
CC(C)c1ccc(C2NC(=O)C(O)=C2C(=O)c2cccs2)cc1 (configuration not stated)	6	8
C1CC2CC1CN2c1nc(C2CC2)no1 (configuration not stated)	39	27
Cn1nc(C(=O)N2CCCCC2C(=O)Nc2ccc(Oc3ccccc3F)cc2)ccc1=O (configuration not stated)	4	-1
O=C(C=C1SC(=O)NC1=O)Nc1nccs1	1	-2
O=C1C2C3c4ccccc4C(c4ccccc43)C2C(=O)N1c1ccc2ccccc2c1 (configuration not stated)	4	7
O=C1Cc2ccccc2C1SC1=NCCS1 (configuration not stated)	-7	-10
CCCN(CC(=O)Nc1cc(Cl)ccc1Cl)C(=O)Cc1ccc(C)cc1	-1	-2
O=C(CSc1c(-c2ccccc2)[nH]c2ccccc12)N1CCCC1	-2	-3
Cc1cc(Cl)ccc1C(=O)C1CCCN(Cc2ccc(C#CCCO)cc2)C1 (configuration not stated)	17&2	15&-1
C=CC[n+]1c(C=Cc2ccc(N(C)C)cc2)ccc2ccccc21	0	0
CC(=O)c1ccc(OCC(=O)NC(C)c2ccc(CC(C)C)cc2)cc1 (configuration not stated)	1	0

Exported as labelled records: 2 of the compounds above.
O=C1C2C3c4ccccc4C(c4ccccc43)C2C(=O)N1c1ccc2ccccc2c1 (configuration not stated)
  NPYLR7 ag: 4	NPYLR7 ag max-min: 7
O=C1Cc2ccccc2C1SC1=NCCS1 (configuration not stated)
  NPYLR7 ag: -7	NPYLR7 ag max-min: -10

Following part:
SMILES	NPYLR7 ag	NPYLR7 ag max-min
COC(=O)c1cc(-c2cc3ccccc3o2)on1	-3	-4
CCNS(=O)(=O)c1ccc(C)c(C(=O)N2c3ccccc3CC2C)c1 (configuration not stated)	7	6
CCN1CCCCC1C(=O)N(C)CC1CCN(CCc2ccccc2F)CC1 (configuration not stated)	1	0
CN(C)CCN(Cc1ccccc1)C(=O)c1cc(-c2ccccc2F)nn1-c1cccc([N+](=O)[O-])c1	14	18
Cc1ccccc1CCN1CCCC(CN(C)C(=O)Cc2ccsc2)C1 (configuration not stated)	1	0
COC(=O)CN1C(=O)N(CCc2ccccc2)C2(CCN(Cc3ccc4c(c3)OCCO4)CC2)C1=O	7	-2
COc1cc(C=CC(=O)NC2CCS(=O)(=O)C2)ccc1OC(F)F (configuration not stated)	1	8
CCN(CC)S(=O)(=O)c1cccc(C(=O)Nc2nc(-c3ccccc3)cs2)c1	-4	-11
Cc1cccn2c(=O)cc(OCC(=O)Nc3ccc4c(c3)OCCO4)nc12	-7	-5
COCCc1ccc2oc(N)nc2c1	-1	12
CCOCCCN1C(=S)NC(c2c(F)cccc2F)C(C(=O)Nc2cc(C)on2)=C1C (configuration not stated)	2	12
CCCCCn1c(CN2CC(C)OC(C)C2)nc2c1c(=O)n(C)c(=O)n2C (configuration not stated)	-11	-14

Pulled one by one from the entries so far, 2 records:
SMILES	NPYLR7 ag	NPYLR7 ag max-min
COc1cccc(COC(=O)c2nnn(-c3ccc(F)cc3)c2C)c1	-9	-13
CCCCCn1c(CN2CC(C)OC(C)C2)nc2c1c(=O)n(C)c(=O)n2C (configuration not stated)	-11	-14

Next entries
SMILES	NPYLR7 ag	NPYLR7 ag max-min
C#CCN(C)c1cc(OC)c(OC)c(OC)c1	6	3
CCNc1ccc(S(=O)(=O)N(C)C)cc1NCC(=O)N1CCCCCCC1	4	5
O=C(c1ccc(S(=O)(=O)N2CCCC2)cc1)N1CCN=C1SCc1ccc(C(F)(F)F)cc1	2	-2
CCCCN(C)[C@@H]1[C@H](O)C[C@@H]2C[C@H](c3ccccn3)OC[C@@]21O	3	8
Cc1cc2c(=O)n(C)c(SCC(=O)Nc3ccc(N(C)C)cc3)nc2s1	-9	-9
CCCCc1ccc(-c2nc(C=Nc3ccc(C)cc3)c(O)o2)cc1	-1	1
NC(=O)COc1ccc(C(=O)N2CCc3sccc3C2)cc1	-2	-3
CCOC(=NCCc1ccc(OC)c(OC)c1)NC(=O)c1ccc(Cl)c(Cl)c1	16	20
COC(=O)[C@H]1C[C@@H](O)CCN1Cc1ccc(Sc2ncn[nH]2)o1	2	3
O=C(CCOc1ccccc1)N1CCC(n2c(Cc3ccccc3)nc3ccccc32)CC1	32	25
Cn1c(CSc2nccn2-c2cccc(Cl)c2)cc(=O)n(C)c1=O	14	11
CC(=O)CCC1(c2ccccc2)NC(=O)NC1=O (configuration not stated)	-4	-2
Cc1ccccc1CN1CCN(C(=O)c2cncn2-c2ccccc2)CC1	0	-1
COc1ccc2[nH]c3c(c2c1)CCN(C(=O)c1ccc(OC)c(C(F)(F)F)c1)C3c1ccc(OCc2ccccc2)cc1 (configuration not stated)	6	-3
COc1ccc(CN(CCc2c[nH]c3ccccc23)Cc2nc(C(=O)O)co2)c(OC)c1	11	10
CCC(C)NC(=O)c1csc(COc2cccc(C)c2C)n1 (configuration not stated)	-2	4
c1ccc(OCCn2cnc(-c3ccccc3)c2C2CCOC2)cc1 (configuration not stated)	5	3
O=C(C(F)c1ccccc1)N1CCC(n2c(Cc3ccccc3)nc3ccccc32)CC1 (configuration not stated)	3	3
COCCN(CCC(=O)N1CCc2ccccc2C1)c1nc(Cc2cccc(OC)c2)ns1	7	8
CSc1nc(O)c(C(c2ccccn2)c2c(O)nc(SC)[nH]c2=O)c(=O)[nH]1	2	62
CCN(CC)CCCNC(=O)Cn1ncn2c(cc3sc(C)cc32)c1=O	6	9
CCOC(=O)C(C(=O)OCC)C(N)=NNC(=O)C(C)C	-23	-27
Cc1nc2c(c(=O)n1C)CCN(C(=O)C1CCOC(C)(C)C1)CC2 (configuration not stated)	14	14
COc1cc(-c2csc(N)n2)cc(OC)c1OC	6	6
O=C(CSc1ccccc1)N1CCC(Cc2ccc(-n3cccc3)cc2)CC1	2	11
O=CNC(=O)c1sc2nccc3c2c1N=CN3c1ccccc1	-1	22
CC1Oc2ccccc2OC1C(=O)N(C)CCCC(=O)O (configuration not stated)	2	-3
O=C1CC2(CCN(C(=O)CCSCc3ccc(F)cc3)CC2)CN1	-2	-4
CN(Cc1ccc(F)cc1F)Cn1c(-c2ccccn2)csc1=O	-3	-3
CCN(Cc1nc2c([nH]1)c(=O)n(C)c(=O)n2C)c1ccccc1	3	0
CC(C)c1cc(N2CCN(c3ccccc3Cl)CC2)nc(SCc2ccc(C(=O)NCC3CCCO3)o2)n1 (configuration not stated)	3	3
CCCCCN(C(=O)c1ccc(OC)cc1)C(C)c1nc2ccccc2c(=O)n1-c1ccccc1OC (configuration not stated)	1	5
Cc1ccc(C)c(S(=O)(=O)Nc2ccccc2C(=O)NCc2ccccc2)c1	4	7
CCOC(=O)C1CCN(C(=O)c2cc(-c3ccc(OC)cc3)nn2-c2ccc([N+](=O)[O-])cc2)CC1	0	9
CCCn1ccc2c(nnc3c(-c4ccc(F)cc4)c(COC)nn32)c1=O	17	10
COc1ccc(CN2CCN(c3ccc(C)nn3)CC2)cc1Cn1cccn1	0	-5
CN(Cc1ccc(C#N)cc1)c1ccc2nnc(CC(F)(F)F)n2n1	1	1
CCOCCCN1CN(CCc2ccccc2)CNC1=S	-3	-4
NCC(=O)Nc1ccccc1-c1csc2ccccc12	7	1
COC(=O)c1sc(N2C(=O)C(=O)C(=C(O)c3ccc(F)cc3)C2c2cccs2)nc1C (configuration not stated)	3	3
CCCC1COCCN1C(=O)CN1CCN(c2ncccn2)CC1 (configuration not stated)	-7	-9
Cc1ccc(OCc2cc(C(=O)N(C)CC3Cc4ccccc4O3)no2)cn1 (configuration not stated)	0	-2
COCC(NC(=O)Cc1ccc(-n2cccc2)cc1)C(C)C (configuration not stated)	15	13
Cc1cc(C)nc(NS(=O)(=O)c2ccc(NC(=O)c3cccc([N+](=O)[O-])c3)cc2)n1	-3	-5
COCCCNC(=O)c1nn(-c2ccc(C)cc2)c(=O)n(Cc2ccccc2Cl)c1=O	11	17
CC(=O)NCC1CCCN(Cc2ccc(C(=O)Nc3cnn(C)c3)cc2)C1 (configuration not stated)	28	25
CCCc1cnc(C)nc1N1CCN(C/C(C)=C/c2ccco2)CC1	17	11
CCOCCn1c(N2CCN(C)CC2)nc2c1c(=O)[nH]c(=O)n2C	11	6
O=C1c2ccccc2CN1CCC(=O)N1CCCCC1CCc1ccc(O)cc1 (configuration not stated)	1	-3
CCOc1ccccc1-c1nccn1CCn1cccn1	4	1
Cc1cn2c3c(=O)[nH]c(=O)n(C)c3nc2n1C1CCCCC1	7	4
CN(C)c1ccc(CNC(=O)CN2CCC(c3nc4ccccc4s3)CC2)cc1	4	1
CCOC(=O)c1c(NC(=O)c2ccc3c(c2)OCO3)sc(C(=O)Nc2ccc(OC)cc2OC)c1C	-4	5
O=C(NNC(=O)c1cccn(Cc2cccc(F)c2)c1=O)Nc1ccc(F)cc1	3	0
COc1ccc(C2CC(c3ccccc3O)=NN2)cc1 (configuration not stated)	7	4
Cc1sc2nc(CN3CCCCC3C)[nH]c(=O)c2c1C (configuration not stated)	5	10
COc1cccc(Cn2c(=O)c(C(=O)NCc3ccco3)nn(-c3ccc(Cl)cc3)c2=O)c1	9	5
Cc1cc(C(=O)Nc2ccc(OCC3CCOCC3)cc2)n[nH]1	6	2
COc1ccccc1-c1onc(C)c1C(=O)NCc1cccnc1	-5	5
Cc1cccc(C)c1OC1CN(C(=O)CSc2nnc(N)s2)C1	4	2
COc1ccc(F)cc1C(=O)C1CCCN(C(=O)c2cccc3nccnc23)C1 (configuration not stated)	6	0
Nc1ccc(-c2nc(-c3ccccc3)c3cc(N)ccc3n2)cc1	14	12

Screens from PubChem BioAssay.
